Mtb bLac sens: beta-lactam sensitization of Mtb H37Rv. M. tuberculosis H37Rv growth with meropenem, percent inhibition; hits of this screen are not shown here. inhibition, % at 25 µM. 330,000 compounds, 0.27% hits. AID 434955;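 active means about 74% or more and at least 40 points above the plate without the antibiotic, then above 30% in a dose series; inconclusive means first-round hits that could not be retested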;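 further: growth measured after seven days incubation then overnight dye step; 0% = bacteria only wells and 100% = bacteria with antibiotic; twin plates without the antibiotic show which effects depend on it; some results filed as inactive read as strong as hits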
Mtb H37Rv: M. tuberculosis H37Rv growth inhibitors, H37Rv strain (AID 1626). M. tuberculosis H37Rv growth inhibition; higher % means a stronger effect. inhibition, % at 10 µM; hits with a dose series show IC50 in µM. 220,000 compounds, 0.95% hits;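 active means confirmed in a dose series; inconclusive means inhibition above 80% but not taken into the dose series; inactive means below 80% or under 30% at every dose of the series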;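 further: bacteria incubated seven days before Alamar blue readout; 0% = bacteria only wells and 100% = bacteria with antibiotic wells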
Arbovirus inh: arbovirus infection inhibition; 200,000 compounds, 0.37% hits; inhibition, % at 10 µM; arbovirus infection cell-based antiviral screen; AID 1251;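 active means inhibition from about 30%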;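 further: bluetongue infection of BSR cells; cell survival read as ATP light after 72 h; 0% = infected wells without compound and 100% = uninfected wells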
YopH PTP inh: YopH (Yersinia) phosphatase inhibition; AID 898; 140,000 compounds, 0.16% hits; fluorescence Ex485/Em525; inhibition, %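 (about 10 µM by stock and volumes)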;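 active means inhibition of 50% or more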;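 further: controls were vehicle for no effect and minimum signal wells for full effect; inactives centre near -20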
RecA intein inh: blocks M. tuberculosis RecA intein splicing | P9WHJ3 | cell-free RecA intein splicing, fluorescence | inhibition, %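 (about 9 µM by stock and volumes)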 | 290,000 compounds, 0.75% hits | AID 2221; in the data active means inhibition above about 30%; inconclusive means no clear call, values can overlap the other calls;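 further: 0% = vehicle wells and 100% = reference inhibitor control wells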
Target sequence (P9WHJ3 whole entry, looked up): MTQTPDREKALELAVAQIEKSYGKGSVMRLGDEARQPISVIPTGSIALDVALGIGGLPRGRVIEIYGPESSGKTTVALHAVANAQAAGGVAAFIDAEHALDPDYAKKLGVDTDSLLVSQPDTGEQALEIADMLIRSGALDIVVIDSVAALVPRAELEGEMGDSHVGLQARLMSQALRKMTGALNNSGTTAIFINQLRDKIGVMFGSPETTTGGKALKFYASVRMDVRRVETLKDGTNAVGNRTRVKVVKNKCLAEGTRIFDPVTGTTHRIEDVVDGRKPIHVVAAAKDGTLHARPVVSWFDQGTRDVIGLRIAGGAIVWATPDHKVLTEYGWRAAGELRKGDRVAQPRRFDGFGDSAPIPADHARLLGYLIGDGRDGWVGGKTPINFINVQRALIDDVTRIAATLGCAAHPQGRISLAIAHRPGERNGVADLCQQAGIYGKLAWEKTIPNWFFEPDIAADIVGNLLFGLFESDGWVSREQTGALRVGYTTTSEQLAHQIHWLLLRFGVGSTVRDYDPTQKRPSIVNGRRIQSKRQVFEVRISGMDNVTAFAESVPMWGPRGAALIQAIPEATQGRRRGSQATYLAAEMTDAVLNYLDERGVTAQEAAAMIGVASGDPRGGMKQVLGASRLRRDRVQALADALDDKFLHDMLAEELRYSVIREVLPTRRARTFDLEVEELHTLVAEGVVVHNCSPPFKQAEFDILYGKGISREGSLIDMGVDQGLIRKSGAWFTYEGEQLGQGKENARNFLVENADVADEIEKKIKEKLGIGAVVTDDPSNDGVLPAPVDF
Arbovirus inh repeat: second read-out of Arbovirus inh, no call of its own (marks repeat the call); inhibition, %; measured here: 10K subset replicate screen; many hits read low in the repeat;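 first of two repeat runs on a subset; 0% = infected and 100% = uninfected wells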
Active calls of the source: *; ? = inconclusive; . = not tested or not shown. A portion of the library. The share of hits here may be higher or lower than overall.

SMILES	Mtb bLac sens	Mtb H37Rv	Arbovirus inh	YopH PTP inh	RecA intein inh	others
CC1CC(C)CN(C(=O)Cn2c(SCC(=O)N3CCc4ccccc4C3)nc3ccccc32)C1 (centres undefined)	6	-4%	-9	-8	1.1
CCN(CC)CCN(C(=O)c1ccc(S(=O)(=O)N(CC)c2ccccc2)cc1)c1nc2c(OC)ccc(OC)c2s1	3	.	.	.	17
Cc1ccc(OCC(=O)NNC(=O)C2CCN(c3nccc(C)n3)CC2)cc1	10	-4%	-8	-30	0.5
CCOC(=O)C(NC(C)=O)C(=O)Nc1ccc(C)cc1C (centres undefined)	3	-8%	13	.	-2.7
COc1ccc(N2CCN(C3CCN(S(=O)(=O)c4ccc(F)cc4)CC3)CC2)cc1	-2	.	.	.	-0.7
C#CC[N+](C)(C)CC#Cc1ccc(Cl)cc1	3	-12%	0	-26	0.5
O=C(CCc1ccccc1)Nc1ccccc1[N+](=O)[O-]	-1	2%	-6	-10	1.7
COc1ccc(OCc2cc(C(=O)NCCCc3ccccc3)no2)c(Cl)c1	7	.	.	.	0.9
COc1ccc(CN(C(=O)c2ccc(-c3ccccc3)[nH]2)C(C(=O)NCC2CCCO2)c2ccc(C)o2)cc1 (centres undefined)	76	.	-13	-17	7.0
O=C(Nc1ccc(Cl)c(Cl)c1)c1ccco1	18	.	.	.	3.0
CCOc1ccccc1NC(=O)C1CCCN(S(=O)(=O)c2ccc3c(c2)C(C)(C)C(=O)N3C)C1 (centres undefined)	1	.	.	.	2.3
CC(=O)n1nc(-c2ccccc2)nc1NCc1ccc(F)cc1	-3	6%	-2	-113	-3.9
O=C(C1CCCO1)N1CCN(C(=S)Nc2ccc(Cl)cc2)CC1 (centres undefined)	-2	-3%	-8	-29	0.2
O=C(Nc1ccc(S(=O)(=O)N2CCOCC2)cc1)c1ccc(=O)[nH]c1	-5	-3%	.	.	1.4
CCOP(=O)(Nc1ccc2oc(=O)c3ccccc3c2c1)OCC	0	2%	.	.	-2.4
Cc1ccc(-n2c(C)cc(/C([O-])=C(/C(=S)Nc3ccc(F)c(Cl)c3)[n+]3ccccc3)c2C)cc1	0	-20%	-1	6	11
CCOc1ccc(CC(=O)Nc2ccc(S(=O)(=O)Nc3cc(C)on3)cc2)cc1OCC	-2	.	4	-21	-2.0
COc1cccc(-c2csc(N3CCN(C(=O)Nc4ccccc4OC)CC3)n2)c1	55	0%	3	-20	6.5
O=C(NCCN1C(=O)S/C(=C\c2ccc(OC(F)F)cc2)C1=O)c1cnccn1	3	0%	-19	-11	-0.8
Cc1ccc(CNC(=O)CSc2ccc(-c3ccco3)nn2)cc1	4	-2%	-4	-26	-0.8
O=C1C2ON(c3ccc(Cl)cc3)C(c3ccco3)C2C(=O)N1c1ccccc1 (centres undefined)	-8	-9%	-3	-33	0.5
Cc1nc(-c2ccc3c(c2)CCC(=O)N3)cs1	11	-5%	.	.	5.3
O=c1c2ccccc2nc(CNc2ccccc2)n1-c1ccccc1	-2	0%	.	.	3.7
CC(C)n1c(O)c(N=NC(=O)CNC(=O)CCc2ccccc2)c2ccccc21	-9	8%	.	.	0.3
O=C(Nc1ccc(CN2CCCCC2)cc1)c1ccc2c(c1)OCO2	-3	-12%	-23	-10	0.7

Retrieved one by one from above (2):
SMILES	Mtb bLac sens	Mtb H37Rv	Arbovirus inh	YopH PTP inh	RecA intein inh	others
CCN(CC)CCN(C(=O)c1ccc(S(=O)(=O)N(CC)c2ccccc2)cc1)c1nc2c(OC)ccc(OC)c2s1	3	.	.	.	17
CC1CC(C)CN(C(=O)Cn2c(SCC(=O)N3CCc4ccccc4C3)nc3ccccc32)C1 (centres undefined)	6	-4%	-9	-8	1.1

Following part:
SMILES	Mtb bLac sens	Mtb H37Rv	Arbovirus inh	YopH PTP inh	RecA intein inh	others
COC(=O)c1ccc(N2CCN(C(C)=O)CC2)c(NC(=O)COc2ccccc2C)c1	-2	1%	-2	.	5.7
O=C(Nc1cc(S(=O)(=O)N2CCOCC2)ccc1N1CCOCC1)c1cn2ccccc2n1	1	5%	4	.	0.4
Cc1nn2c(-c3ccc(S(=O)(=O)N4CCN(C)CC4)o3)nnc2c2ccccc12	-2	.	.	.	-1.2
CCOc1ccc(-n2cnc3scc(-c4ccc(OC)c(OC)c4)c3c2=O)cc1	9	-4%	-12	.	0.4
COc1cc(C(=O)NCc2ccccc2)ccc1OC(F)F	5	-5%	-5	-51	3.6
Cc1cc(C)c(S(=O)(=O)n2ccc(-c3ccc(OCCN(C)c4ccccn4)cc3)n2)c(C)c1	9	0%	1	-30	1.7
Cc1ccc(S(=O)(=O)N2CCC(C(=O)OCC(=O)N3CCCC(C)C3)CC2)cc1C (centres undefined)	2	.	.	.	2.2
CC(=O)N1CCc2c(sc(NC(=O)c3ccc(S(=O)(=O)N(C)C)cc3)c2C#N)C1	0	6%	7	-30	0.1	Arbovirus inh repeat=-5
CCN(CC)S(=O)(=O)c1ccc(-c2nnco2)cc1	1	-14%	10	-43	-1.3	Arbovirus inh repeat=-1
Cc1cc(C)n2ncc(-c3cccc(Br)c3)c2n1	34	.	.	.	3.0
C#CCOC(=O)Nc1ccc(OCC(F)(F)F)nc1	1	-8%	.	.	.
CNC(=O)CN(C)S(=O)(=O)c1ccc(OC)c(Cl)c1	-18	-2%	0	-28	-1.1
CCOC(=O)c1ccc(NC(=O)C2CCC(CNc3c(N4CCOCC4)c(=O)c3=O)CC2)cc1 (centres undefined)	-7	4%	.	.	-3.4
C=CCn1c(COc2ccccc2)nnc1SCC(=O)NCC(=O)OCC	2	-16%	-3	-26	8.7
NC(=O)C1(N2CCCCC2)CCN(Cc2ccc(F)cc2)CC1	-9	-10%	-1	-3	2.7
N#CC1(c2ccccc2)CCCN1C(=O)c1ccc(Br)o1 (centres undefined)	0	2%	0	9	1.0
Cc1cc2oc(=O)sc2cc1NS(=O)(=O)c1ccccc1	5	.	.	.	-4.1
Cc1cc(=O)c2cc(Br)ccc2n1CC(=O)NCc1ccccc1	29	?	.	.	5.6
COc1ccc(Cl)cc1C(=O)NC(=S)Nc1cc(-c2nc3ccccc3[nH]2)ccc1C	75	9%	-14	-10	7.0
CC(=O)c1cccc(N(CC(=O)NC2CCCCC2)C(=O)CNC(=O)c2cccs2)c1	5	.	.	.	2.9
COCCNc1nc(CSc2ccccc2)nc2sc(C)c(C)c12	7	17%	7	-29	4.6
O=C(CN1CCCCC1)Nc1c2c(nc3ccccc13)N(c1ccccc1)CC2	0	2%	14	.	-4.1
O=C(Nc1nc2ccc(F)cc2s1)c1ccc(N2CCCC2=O)cc1	-1	.	.	.	4.2
COC(=O)CC1C(=O)NC2CCCCC2N1C(=O)CCl (centres undefined)	9	2%	.	.	.
O=C(CNC(=O)c1sc2ccccc2c1Cl)NCc1ccccc1	-23	.	.	.	-1.0

Compounds shown so far that have bromine, in the order listed:
SMILES	Mtb bLac sens	Mtb H37Rv	Arbovirus inh	YopH PTP inh	RecA intein inh	others
Cc1cc(C)n2ncc(-c3cccc(Br)c3)c2n1	34	.	.	.	3.0
N#CC1(c2ccccc2)CCCN1C(=O)c1ccc(Br)o1 (centres undefined)	0	2%	0	9	1.0
Cc1cc(=O)c2cc(Br)ccc2n1CC(=O)NCc1ccccc1	29	?	.	.	5.6

Arranged by number of heavy atoms (high to low): 3 of the compounds above
SMILES	Mtb bLac sens	Mtb H37Rv	Arbovirus inh	YopH PTP inh	RecA intein inh	others
CCOc1ccc(-n2cnc3scc(-c4ccc(OC)c(OC)c4)c3c2=O)cc1	9	-4%	-12	.	0.4
O=C(CNC(=O)c1sc2ccccc2c1Cl)NCc1ccccc1	-23	.	.	.	-1.0
NC(=O)C1(N2CCCCC2)CCN(Cc2ccc(F)cc2)CC1	-9	-10%	-1	-3	2.7

An excerpt from the list above:
SMILES	Mtb bLac sens	Mtb H37Rv	Arbovirus inh	YopH PTP inh	RecA intein inh	others
Cc1cc(C)c(S(=O)(=O)n2ccc(-c3ccc(OCCN(C)c4ccccn4)cc3)n2)c(C)c1	9	0%	1	-30	1.7
Cc1ccc(S(=O)(=O)N2CCC(C(=O)OCC(=O)N3CCCC(C)C3)CC2)cc1C (centres undefined)	2	.	.	.	2.2
CC(=O)N1CCc2c(sc(NC(=O)c3ccc(S(=O)(=O)N(C)C)cc3)c2C#N)C1	0	6%	7	-30	0.1	Arbovirus inh repeat=-5
CCN(CC)S(=O)(=O)c1ccc(-c2nnco2)cc1	1	-14%	10	-43	-1.3	Arbovirus inh repeat=-1

Remaining list, next part:
SMILES	Mtb bLac sens	Mtb H37Rv	Arbovirus inh	YopH PTP inh	RecA intein inh	others
O=C(c1ccccc1)N1CCSc2sccc2C1=O	.	4%	-4	.	-2.8
Cc1ccc(S(=O)(=O)N2CCC(N3CCN(C)CC3)CC2)cc1Cl	-1	.	.	.	4.7
O=C(CN(Cc1ccco1)C(=O)c1ccc(Cl)cc1)Nc1c(Cl)cc(Cl)cc1Cl	-2	4%	3	-13	-7.2
CCCS(=O)(=O)N1CCC(C(=O)NC2CCCC(C)C2C)CC1 (centres undefined)	-5	-6%	-2	-6	3.5
O=C(COC(=O)CC(c1ccccc1)c1ccccc1)Nc1c(F)cccc1F	8	-6%	7	-23	9.1
NS(=O)(=O)c1cccc(NC(=O)CN2CCCc3ccccc32)c1	11	1%	3	.	-1.8
Cc1cc(Cl)ccc1OCc1nc(-c2ccncc2)no1	-1	9%	-2	.	.
Cc1cccc(-c2nnc(N)s2)c1	2	4%	8	-51	-0.8
CC(C)Cc1ccc(S(=O)(=O)NCC2CCCO2)cc1 (centres undefined)	-5	.	.	.	-0.4
Cc1ccc(-c2csc(NC(=O)c3cccc([N+](=O)[O-])c3C(=O)O)n2)cc1	3	11%	16	.	-4.8
CCOc1ccc(NC(=O)C(CC(=O)O)Cc2ccc(Br)cc2)cc1 (centres undefined)	0	.	.	.	0.4
Cc1ccc2oc(C(=O)N3CCC(N4CCSCC4)CC3)c(C)c2c1	0	.	.	.	1.0
O=S(=O)(NCCSc1ccccc1)c1ccc2c(c1)OCCO2	-7	3%	1	-8	1.0
CN(C(=O)Cn1nnc(-c2cccc(C(F)(F)F)c2)n1)C1CCCCC1	-2	-19%	-5	-8	-4.5
CCOC(=O)c1ccc(COC(=O)c2cc(=O)[nH]c3ccccc23)o1	5	6%	2	-14	-2.7
O=S(=O)(c1ccc(Cl)c(NC(=S)Nc2cccc(O)c2)c1)N1CCOCC1	-2	2%	-2	-5	-8.3
O=C(CN1CCN(S(=O)(=O)c2ccc(Cl)cc2)CC1)NCc1cccs1	-7	.	.	.	-0.6
COc1ccc(C2SCCN2C(=S)Nc2ccc(Cl)cc2)cc1 (centres undefined)	-4	6%	21	1	11
CC(C)CCNC(=O)CN(Cc1ccccc1Cl)C(=O)CCC(=O)Nc1ccccn1	-2	.	.	.	0.2
CCN(CC)CCNC(=O)c1cc(-c2ccc(Br)s2)nc2ccccc12	0	.	.	.	-3.7
CCCCNC(=O)CCn1nc(-c2ccccc2)ccc1=O	5	.	0	1	1.8
Cc1csc(NC(=O)c2cccc(S(=O)(=O)N3CCN(C)CC3)c2)n1	-3	2%	-2	.	-5.3
CCCCC(CC)C(=O)NCCc1ccc(S(N)(=O)=O)cc1 (centres undefined)	0	0%	2	-22	-1.5	Arbovirus inh repeat=2
Cc1ccccc1N1CCN(C2CCCN(C(=O)c3cc(CC(C)C)nn3C)C2)CC1 (centres undefined)	1	.	.	.	-3.4
CC(CNC(=O)c1ccc(C(C)(C)C)cc1)CN(C)C (centres undefined)	-10	0%	0	-28	-3.1
COc1ccc(-c2cc(C(=O)Nc3cccc(S(=O)(=O)NCc4ccco4)c3)c3ccccc3n2)cc1OC	75	39%	-5	.	-4.2
CCc1cc2cc(C)cc(C)c2[nH]c1=S	-3	2%	-13	.	-2.4
